Bioassay records: PubChem BioAssay, National Center for Advancing Translational Sciences (NCATS)
Rango release inh – prevents RanGTP from dissociating the Rango-importin beta complex; O95149+P62826; Biochemical FRET Rango-importin beta, RanGTP-induced dissociation; Potency, µM (series often up to 46.1 µM), for inactives: at the highest dose activity change, negative = inhibition; 340,000 compounds, 0.071% hits; AID 540253; active means falling FRET ratio curve, often poorly fitted, with flat reads before Ran was added; inconclusive means other falling curves, or compound fluorescence or quenching; inactive means flat or rising ratio curve;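 also: potency is read from the fitted curve at half-maximal effect; % of control where 0% means no effect; nearly all actives have a fitted effect of over 45% in size; -100% = wells without RanGTP and RCC1; the record marks most hits as doubtful in a second field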
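Rango (0.1 uM)–importin beta (0.25 uM) complex; RanGTP-RCC1 trigger; 45 min RT; CFP/YFP FRET read.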
miR-21 FLuc – raises the signal of a miR-21 reporter; HeLa miR-21 FLuc reporter, luciferase, 48 h; Potency, µM (doses to about 38.3 µM), for the others: at the highest dose reporter change, positive = more light; 340,000 tested, under 10 active; AID 2288; active = well fitted rising curve with a large enough effect; inconclusive = small, poorly fitted or top-dose-only effect; inactive = no such curve, though single readings can be large or run the other way;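 also: % of control where 0% means no effect; miR-21 action dims this reporter so a rising signal means less miR-21 action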
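HeLa cells endogenously expressing miR-21, stably carrying CMV-driven firefly luciferase with a downstream miR-21 binding site, 2000 cells/well. Titrations up to approximately 40 uM, 48 hours; luciferase luminescence read.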
GLA inh pH 4.5 – inhibitors of human alpha-galactosidase A at pH 4.5; purified enzyme, 4-MU-alpha-Gal fluorescence, pH 4.5; activity change, negative = inhibition, % at 105 µM; 230,000 tested, under 10 active; AID 1467; inconclusive = small, poorly fitted or top-dose-only inhibition, or a rising curve; inactive = flat fitted curve, though single readings scatter; no compound was filed as active;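 also: 0% = full activity with enzyme and -100% = basal without enzyme; dose as in the result columns while the protocol names 77 µM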
Rango complex inh – prevents formation of the Rango-importin beta complex; Q14974; Rango CFP/YFP FRET sensor + importin beta, 45 min; Potency, µM (highest dose often 92.2 µM), inactives show at the highest dose inhibition of complex formation; 340,000 compounds, 0.031% hits; AID 540263; active = rising FRET ratio curve, often small or poorly fitted; inconclusive = mostly compound fluorescence or quenching in the first reads; inactive = flat curves in all reads;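 also: potency is read from the fitted curve at half-maximal effect; 0% = DMSO wells and 100% = buffer wells lacking importin beta; nearly all actives have a fitted effect of over 15% in size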
Target sequence (Q14974 whole entry, looked up): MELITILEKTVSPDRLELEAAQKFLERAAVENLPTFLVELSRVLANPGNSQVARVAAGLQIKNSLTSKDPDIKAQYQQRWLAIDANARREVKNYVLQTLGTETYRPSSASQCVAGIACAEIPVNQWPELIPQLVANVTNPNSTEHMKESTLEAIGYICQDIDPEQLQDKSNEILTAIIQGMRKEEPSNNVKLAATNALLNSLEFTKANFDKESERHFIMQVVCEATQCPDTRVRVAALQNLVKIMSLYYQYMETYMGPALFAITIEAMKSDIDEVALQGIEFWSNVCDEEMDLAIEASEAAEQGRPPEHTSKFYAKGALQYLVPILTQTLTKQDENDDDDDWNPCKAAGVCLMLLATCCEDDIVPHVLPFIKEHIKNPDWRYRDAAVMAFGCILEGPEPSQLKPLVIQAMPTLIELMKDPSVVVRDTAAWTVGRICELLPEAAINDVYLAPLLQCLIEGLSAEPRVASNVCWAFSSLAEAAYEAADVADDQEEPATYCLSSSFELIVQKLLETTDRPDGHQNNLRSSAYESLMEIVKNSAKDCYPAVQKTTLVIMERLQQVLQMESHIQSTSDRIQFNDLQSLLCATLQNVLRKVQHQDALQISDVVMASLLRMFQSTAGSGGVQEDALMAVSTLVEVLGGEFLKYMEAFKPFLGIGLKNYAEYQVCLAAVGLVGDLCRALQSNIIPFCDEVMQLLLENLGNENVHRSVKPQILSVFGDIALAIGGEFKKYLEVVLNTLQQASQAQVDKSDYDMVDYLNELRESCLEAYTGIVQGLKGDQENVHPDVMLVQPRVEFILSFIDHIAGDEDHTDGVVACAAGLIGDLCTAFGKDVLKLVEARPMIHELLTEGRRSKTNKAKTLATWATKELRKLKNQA
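Inhibition scored from the CFP 486 nm/YFP 530 nm FRET ratio 45 min after adding 0.125 microM importin beta to 50 nM Rango biosensor preincubated 5 min with compound (room temperature, PBS with DTT, Tween-20, BSA). No-importin wells as positive control.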
An asterisk follows results filed as active; ? = inconclusive; . = no result given; & = joins results of further samples; [ ] = remark or other dose. This is a subset; the hit share may differ from the screen's.

Values run as follows: Rango release inh	miR-21 FLuc	GLA inh pH 4.5	Rango complex inh
1: CCCSC1=N/C(=C\c2ccc([N+](=O)[O-])o2)C(=O)S1
  3%	0%	-10	3.5%
2: Cc1ccc2c(c1)cc(CN(Cc1ccc3c(c1)OCO3)C(=O)c1ccccc1)c1nnnn12
  9%	1%	0	-0.6%
3: Cn1c(N2CCC(C(N)=O)CC2)nc2c1c(=O)n(Cc1cccc(Br)c1)c(=O)n2C
  12%	-5%	-2	0.4%
4: CC1CCN(S(=O)(=O)c2csc(C(=O)Nc3ccccc3)c2)CC1
  1%	7%	0	5.5%
5: COc1ccc(C(=O)N2CCN(S(=O)(=O)c3ccc(F)cc3)CC2)cc1OC
  4%	2%	3	2.8%
6: CCn1c(-c2ccccc2)c(C(=O)O)c2ccccc21
  2%	4%	-3	6.4%
7: CSc1ccc(-c2nnn(Cc3ccccn3)n2)cc1
  0%	-39%	-1	0.3%
8: CN(CC(=O)Nc1ccc(F)cc1)CC(=O)N1CCc2ccccc21
  -8%	.	.	0.4%
9: CCCn1c2ccccc2c2nnc(SCC(=O)OCC)nc21
  1%	-8%	-9	-4.7%
10: O=C(O)C1CC=CCC1C(=O)Nc1cccc(Cl)c1Cl (centres undefined)
  .	-13%	0	.
11: Nn1c(COc2ccccc2)nnc1SCC(=O)O
  6%	-1%	1	-0.3%
12: C=CCn1c(Cc2ccc(OC)cc2)nnc1SCC(=O)c1cccc([N+](=O)[O-])c1
  1%	-6%	12	-0.1%
13: Cc1ccc(NC(=O)c2cnc(SCC(=O)c3ccccc3)n(C)c2=O)cc1
  11%	.	.	1.2%
14: CCCCOc1ccc(N2C(=O)C(C)CNC2=S)cc1 (centres undefined)
  0%	.	.	1.5%
15: COc1cccc(SCC(=O)N2CCN(c3ccccc3)CC2)c1
  -5%	-9%	0	-1.4%
16: CCOC(=O)CCCc1c[nH]c2ccccc12
  -2%	-8%	-13	-1.1%
17: NCCCC(N)(C(=O)O)C(F)F (centres undefined)
  17%	3%	-5&-17	-1.2%
18: COC(=O)c1ccc(N2CCN(c3ccccc3)CC2)c(NC(=O)C2CC2)c1
  1%	-1%	3	0.0%
19: CCn1cc(C(=O)NCCCN2CCC(C)CC2)c(=O)c2cc(S(=O)(=O)N3CCOCC3)ccc21
  -6%	-1%	.	0.4%
20: CCc1nc2ccccc2n(CCOCCn2c(=O)c(CC)nc3ccccc32)c1=O
  11%	3%	8	0.4%
21: CN(C(=O)c1cccc(NC(=O)Cc2ccc(NC(=O)C3CCCN(C(=O)CCc4ccccc4)C3)cc2)c1)C1CCCC1 (centres undefined)
  6%	.	.	3.6%
22: O=C(Cn1nc(Cc2cccnc2)c2ccccc2c1=O)N1CCN(C(=O)c2ccco2)CC1
  -6%	-2%	8	-0.7%
23: Cc1cccc(C)c1-n1c(C)cc(/C=N\NC(=O)CC(=O)NC2CCCCC2)c1C
  2%	-6%	-8	0.3%
24: Cc1ccccc1-n1c(SCC(=O)N2CCN(c3ccccc3)CC2)nnc1-c1ccncc1
  1%	-4%	7	-3.1%
25: CC1(C)O[C@@H]2[C@H](O1)[C@@H](COS(=O)(=O)O)O[C@H]2n1ccc(=O)[nH]c1=O
  1%	.	.	0.5%
26: CCOC(=O)C1CCN(C(=O)c2cc3cc(C)ccc3[nH]2)CC1
  -5%	-41%	.	3.2%
27: CCCCNC(=O)c1ccc(CS(=O)(=O)c2ccc(C)cc2)o1
  -17%	1%	.	-4.1%
28: CCOC(=O)c1[nH]c2ccccc2c1NC(=S)Nc1ccccc1
  11%	-41%	6	1.3%
29: Cn1cccc1CC(=O)N/N=C/c1cccc2ccccc12
  1%	-19%	-6	3.0%
30: CCN(CC)CCN(C(=O)c1ccc(C(=O)c2ccccc2)cc1)c1nc2cc3c(cc2s1)OCO3
  -17%	-9%	.	0.0%
31: COc1ccc(CN2CCN(CC=C(C)C)C(CCO)C2)cc1Cn1cncn1 (centres undefined)
  -7%	-9%	-1	2.6%
32: Cc1ccc(S(=O)(=O)N(C)/N=C/C=C/c2ccccc2)cc1
  20%	-8%	1	0.6%
33: CCN(CC(=O)NCc1ccc(F)cc1)C(=O)COc1ccccc1[N+](=O)[O-]
  -7%	.	.	0.2%
34: CCn1c2ccccc2c2nc3cc(OC)c(OC)cc3nc21
  ?	-30%	6	?
35: COc1ccc(C(C#N)C2(C)OCCO2)cc1OC (centres undefined)
  -5%	-10%	1	-0.2%
36: Cn1c(OCc2ccco2)nc2c1c(=O)n(Cc1ccc(Cl)c(Cl)c1)c(=O)n2C
  -20%	0%	8	-3.9%
37: O=C(N/N=C/c1ccccc1OC(F)F)NC1CCCCC1
  20%	-12%	5	-0.3%
38: Cc1ccc(NC(=O)c2ncn(CC(=O)NCC(C)c3ccccc3)n2)cc1C (centres undefined)
  -10%	.	.	0.7%
39: S=c1nc(-c2cc(Cl)cc(Cl)c2)[nH][nH]1
  7%	-1%	8	2.4%
40: Cc1noc(C)c1C(=O)NC(Cc1c[nH]c2ccccc12)C(=O)O (centres undefined)
  1%	.	.	-1.2%
41: COc1ccc(NC(=O)C2CC(=O)N(CCc3ccc(F)cc3)C2)c(OC)c1 (centres undefined)
  1%	0%	.	1.7%
42: O=C(c1c(F)cccc1Cl)N1CCN(c2ccccn2)CC1
  -1%	1%	.	1.0%
43: O=C(CSc1ccc2nnc(-c3ccccn3)n2n1)Nc1cccc(F)c1
  2%	-6%	.	2.6%
44: Cc1nn(C)c(C(=O)NC2C3CC4CC(C3)CC2C4)c1Cl (centres undefined)
  2%	-21%	1	-0.3%
45: CNC(=O)COc1coc(CN2CCN(c3ccccc3F)CC2)cc1=O
  1%	2%	.	-0.3%
46: O=C(O)/C=C/C(=O)Nc1ccc(SC(F)(F)F)cc1
  7%	-11%	4	0.1%
47: CCOC(=O)c1[nH]c2ccccc2c1N=CN(C)C
  -3%	.	.	0.2%
48: CCCNc1cc(C)oc(=O)c1C(=O)CC
  2%	-1%	5[21.1 µM]	-4.9%
49: COc1ccccc1-c1cc(C(=O)Nc2cc(C)on2)no1
  1%	-14%	-8	0.6%
50: CCOc1ccc(/C=N/NC(=O)c2nnn(-c3nonc3N)c2CN(C)C2CCCCC2)cc1
  3%	1%	.	-0.6%
51: CCc1ccc(N2CCCn3c2nc2c3c(=O)n(CCN3CCOCC3)c(=O)n2C)cc1
  .	-2%	2	.
52: COC(=O)c1nn2c(C(F)(F)F)cc(-c3ccc(Br)o3)nc2c1Br
  -29%	-1%	5	?
53: COc1ccc(C(C#N)N2CCOCC2)cc1 (centres undefined)
  12%	-5%	-4	0.4%
54: CC(C)Oc1cc(NC(=O)CS(=O)CC(=O)N(C)C)c(Cl)cc1Cl (centres undefined)
  -3%	-4%	4	0.0%
55: CC(=O)Nc1ccc(Nc2cc(C)nc3c(-c4ccc(Cl)cc4)cnn23)cc1
  -3%	-8%	-1	-6.2%
56: O=C(CCC(=O)c1cccs1)NCC(=O)Nc1ccc(F)c(F)c1F
  1%	-10%	3	-1.9%
57: CCOC(=O)C1=C(C)N=c2sc(=C(C)C)c(=O)n2C1c1ccc(N(C)C)cc1 (centres undefined)
  -26%	.	.	?
58: CC(CCc1ccccc1)NS(=O)(=O)c1ccccc1F (centres undefined)
  -2%	-6%	.	-1.1%
59: O=S(=O)(c1ccc2ccccc2c1)N1CCN(S(=O)(=O)c2c(F)cccc2F)CC1
  0%	.	.	1.5%
60: COc1ccc(NS(=O)(=O)c2cccc(NC(=O)CCC(=O)c3cccs3)c2)cc1
  -2%	7%	-2	2.1%

(cont.)
Values run as follows: Rango release inh	miR-21 FLuc	GLA inh pH 4.5	Rango complex inh
61: OCC(O)C1OC(Nc2ccc(Cl)cc2)C(O)C1O (centres undefined)
  3%	-9%	5	-4.8%
62: COC(=O)C1=C(C)NC(C)=C(C(=O)OC)C1c1cc2cc(C)ccc2[nH]c1=O
  ?	-1%	8	?
63: O=c1c(Cl)c(N2CCCCC2)cnn1-c1nc2ccccc2[nH]1
  -14%	19%	7	-5.0%
64: CC1CCN(S(=O)(=O)c2ccc3c(c2)N(CC(=O)NCCN2C(C)CCCC2C)C(=O)CS3)CC1 (centres undefined)
  -8%	-3%	.	-1.3%
65: COc1ccc(S(=O)(=O)N2CCC(Cc3ccccc3)CC2)cc1C(N)=O
  -11%	-1%	.	-1.0%
66: Cc1nc2cc(-n3ccc(=O)cc3)ccc2n1-c1ccccc1
  6%	-3%	-2	-6.4%
67: CC(C)c1cc(N2CCOCC2)n2ncc(-c3ccccc3)c2n1
  -4%	-21%	.	1.5%
68: O=C(c1cccc(C(F)(F)F)c1)N1CCN(S(=O)(=O)c2ccc(Cl)s2)CC1
  9%	0%	.	-0.1%
69: CC1C(=NO)C(C)C(c2ccccc2)NC1c1ccccc1 (centres undefined)
  7%	0%	2	2.6%
70: O=C1CS/C(=N/N=C/c2ccc(OS(=O)(=O)c3ccccc3)cc2)N1
  9%	2%	0	-1.7%
71: COc1ccc(-c2nc(CN3CCC(C(=O)NC4CC4)CC3)c(C)o2)cc1OC
  0%	1%	.	0.9%
72: O=C(CNC(=O)c1ccco1)N/N=C/c1ccc(C(=O)O)cc1
  -1%	-1%	.	2.7%
73: O=C(O)c1cc(O)ccc1NC(=O)C(c1ccccc1)c1ccccc1
  -3%	-5%	.	-0.5%
74: CSc1ccccc1C(=O)Nc1ncn[nH]1
  -14%	0%	.	-1.0%
75: COC(=O)c1ccc(S(=O)(=O)NCc2ccco2)n1C
  -6%	0%	5	-1.1%
76: CC(=O)c1ccc(NC(=S)N2CCN(C(=S)Nc3ccc(C(C)=O)cc3)C(C)C2)cc1 (centres undefined)
  14%	-8%	-9	-2.1%
77: O=C(COc1cc(F)ccc1[N+](=O)[O-])NCCN1C(=O)CSC1=O
  4%	.	.	?
78: COC(=O)C1=C(C)N(Cc2ccccc2)C(=O)N[C@H]1c1cccc(C(F)(F)F)c1
  5%	12%	2&-6	-0.5%
79: CC(C)(C)OC(=O)NCCCC[C@H](NC(=O)c1[nH]cnc1C(=O)Nc1ccc(CNC(=O)OC(C)(C)C)cc1)C(=O)OC(C)(C)C
  -3%	?	?	5.5%
80: COc1cccc(N(CC(=O)NCc2cccnc2)S(C)(=O)=O)c1
  10%	0%	1	1.2%
81: O=C(NC1CCCC1)C(c1cccnc1)N(Cc1ccc(F)cc1)C(=O)c1csnn1 (centres undefined)
  -5%	-2%	.	3.5%
82: Cc1ccc2c(c1)N(C(=O)CCC(=O)NCCN1CCOCC1)CCO2
  21%	-1%	.	-2.7%
83: Cc1ccc(NC(=O)CSc2nnc3c(n2)[nH]c2ccccc23)cc1
  0%	0%	.	0.3%
84: COc1ccc(N=C2SC(C(=O)Nc3ccc(C(=O)O)cc3)CC(=O)N2Cc2cccs2)cc1 (centres undefined)
  -6%	-21%	-3	1.1%
85: O=C(Nc1ccc(NC(=S)NC(=O)c2cccs2)cc1)c1ccco1
  5%	-27%	2	0.7%
86: CCOC(=O)c1c(C)[nH]c(C)c1S(=O)(=O)N(C)CC(=O)Nc1ccc(C)cn1
  17%	-8%	.	-0.4%
87: O=C(CNC(=O)c1ccccc1Br)NCCSc1ccc(Br)cc1
  13%	.	.	-2.5%
88: CSc1ccc(/C=C(\C(=O)O)c2ccc(S(=O)(=O)N3CCCCC3)s2)cc1
  -19%	-9%	3	-5.5%
89: COc1ccc2c(c1)OC[C@H]1[C@H]2N2C(=O)CN(C)C(=O)[C@@]2(C)[C@H]1c1ccccc1
  1%	.	.	5.8%
90: COCCNC(=S)N(CCc1c(C)[nH]c2ccccc12)Cc1cccnc1
  -4%	-2%	.	0.0%
91: Cc1ccc2nc(SCC(=O)NC3CCS(=O)(=O)C3)[nH]c2c1 (centres undefined)
  17%	.	.	-1.7%
92: O=C1CC(C(=O)Nc2ccccc2)C2(CCCCC2)O1 (centres undefined)
  7%	-1%	4	4.9%
93: CS(=O)(=O)N(Cc1ccccc1)c1ccc(C(=O)NCc2cccnc2)cc1
  ?	2%	5	-2.0%

Quoted from the listing.
O=C(CNC(=O)c1ccccc1Br)NCCSc1ccc(Br)cc1 in Rango release inh shows 13%
CS(=O)(=O)N(Cc1ccccc1)c1ccc(C(=O)NCc2cccnc2)cc1 in miR-21 FLuc shows 2%
